Screens from PubChem.
GLA inh pH 4.5 = inhibitors of human alpha-galactosidase A at pH 4.5. P06280. purified enzyme, 4-MU-alpha-Gal fluorescence, pH 4.5. activity change, negative = inhibition, % at 105 µM. 230,000 tested, under 10 active; inconclusive = small, poorly fitted or top-dose-only inhibition, or a rising curve; inactive = flat fitted curve, though single readings scatter; no compound was filed as active;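 note: 0% = full activity with enzyme and -100% = basal without enzyme; dose as in the result columns while the protocol names 77 µM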
miR-21 reporter = miR-21 reporter, rising signal; 340,000 tested, under 10 active; HeLa miR-21 FLuc reporter, luciferase, 48 h; Potency, µM (series often up to 38.3 µM), for the others: at the top dose reporter change, positive = more light; active = well fitted rising curve with a large enough effect; inconclusive = small, poorly fitted or top-dose-only effect; inactive = no such curve, though single readings can be large or run the other way;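 note: % of control where 0% means no effect; miR-21 action dims this reporter so a rising signal means less miR-21 action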
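HeLa cells endogenously expressing miR-21, stably carrying CMV-driven firefly luciferase with a downstream miR-21 binding site, 2000 cells/well. Titrations up to approximately 40 uM, 48 hours; luciferase luminescence read.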
Rango-impB inh = prevents formation of the Rango-importin beta complex; Q14974; Rango CFP/YFP FRET sensor + importin beta, 45 min; Potency, µM (doses to about 92.2 µM), without a hit: at the highest dose inhibition of complex formation; hit rate 0.031% among 340,000; active = rising FRET ratio curve, often small or poorly fitted; inconclusive = mostly compound fluorescence or quenching in the first reads; inactive = flat curves in all reads;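 note: potency is the fitted concentration of half-maximal effect; 0% = DMSO wells and 100% = buffer wells lacking importin beta; nearly all actives have a fitted effect of over 15% in size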
Target sequence (Q14974 whole entry, looked up): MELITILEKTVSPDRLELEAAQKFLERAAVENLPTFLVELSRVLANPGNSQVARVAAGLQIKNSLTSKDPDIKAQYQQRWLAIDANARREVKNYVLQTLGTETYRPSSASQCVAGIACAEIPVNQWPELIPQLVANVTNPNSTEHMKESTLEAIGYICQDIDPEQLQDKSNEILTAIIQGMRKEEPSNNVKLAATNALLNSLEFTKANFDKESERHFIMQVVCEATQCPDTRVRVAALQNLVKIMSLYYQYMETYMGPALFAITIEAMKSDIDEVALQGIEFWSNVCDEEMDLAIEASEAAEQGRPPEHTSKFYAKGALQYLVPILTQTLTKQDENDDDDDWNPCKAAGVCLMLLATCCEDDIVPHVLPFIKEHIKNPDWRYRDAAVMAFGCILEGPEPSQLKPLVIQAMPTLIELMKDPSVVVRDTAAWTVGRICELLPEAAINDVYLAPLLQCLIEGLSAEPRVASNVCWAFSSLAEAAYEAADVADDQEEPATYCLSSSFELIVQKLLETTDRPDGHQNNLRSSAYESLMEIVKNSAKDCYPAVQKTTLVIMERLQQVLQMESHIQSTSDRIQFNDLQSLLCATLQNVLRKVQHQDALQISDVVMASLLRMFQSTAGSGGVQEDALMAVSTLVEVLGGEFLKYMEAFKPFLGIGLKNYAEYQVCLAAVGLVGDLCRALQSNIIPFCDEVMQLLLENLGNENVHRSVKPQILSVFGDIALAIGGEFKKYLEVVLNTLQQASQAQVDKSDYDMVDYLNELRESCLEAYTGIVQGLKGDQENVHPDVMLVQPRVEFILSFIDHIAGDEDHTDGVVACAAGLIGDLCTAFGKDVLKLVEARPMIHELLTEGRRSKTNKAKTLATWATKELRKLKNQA
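FRET biosensor Rango (snurportin 1 IBB between N-terminal EYFP and C-terminal Cerulean), 50 nM in PBS/1 mM DTT/0.02% Tween-20/0.1% BSA, preincubated 5 min RT with compound; 0.125 microM importin beta added, 45 min RT, CFP/YFP FRET ratio read.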
Rango dissoc inh = prevents RanGTP from dissociating the Rango-importin beta complex | O95149+P62826 | Biochemical FRET Rango-importin beta, RanGTP-induced dissociation | Potency, µM (titrated, usually from 46.1 µM), for inactives: at the top dose activity change, negative = inhibition | hit rate 0.071% among 340,000; active means falling FRET ratio curve, often poorly fitted, with flat reads before Ran was added; inconclusive means other falling curves, or compound fluorescence or quenching; inactive means flat or rising ratio curve;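 note: potency is the fitted concentration of half-maximal effect; % of control where 0% means no effect; nearly all actives have a fitted effect of over 45% in size; -100% = wells without RanGTP and RCC1; the record marks most hits as doubtful in a second field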
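Compounds preincubate 5 min with complex of recombinant Rango and importin beta in PBS with 1 mM DTT. Ran (0.6 uM) loaded with 2 mM GTP plus 0.2 uM RCC1 starts dissociation; FRET is recorded 45 min later.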
Numbers without * were called inactive; & = joins results of further samples; [ ] = dose if it differs, or a comment. An excerpt; count on the stated rates, not on these rows.

For Cc1ccc(S(=O)(=O)Nc2ccccc2C(=O)Nc2nc(-c3ccc(F)cc3)cs2)cc1 the results were GLA inh pH 4.5 -2, miR-21 reporter inconclusive, Rango-impB inh 0.1% and Rango dissoc inh 4%.
Screening O=c1ccc2ccc(Oc3ccc(Cl)cc3[N+](=O)[O-])cc2o1 returned GLA inh pH 4.5 4[21.1 µM], miR-21 reporter -10%, Rango-impB inh -2.3% and Rango dissoc inh -2%.
`Cc1ccc(NS(=O)(=O)N2CCCCC2)cc1` gave Rango-impB inh -1.9% and Rango dissoc inh 10%.
For COc1ccc(CN(C)Cc2nc(Cc3ccccc3Cl)no2)cc1OC the results were GLA inh pH 4.5 -6, miR-21 reporter 4%, Rango-impB inh 2.6% and Rango dissoc inh 1%.
For CC(C)NC(=O)/C(=C/c1ccco1)c1ccccc1 the results were GLA inh pH 4.5 0, miR-21 reporter -6%, Rango-impB inh -0.5% and Rango dissoc inh -4%.
`CNC(=O)Nc1cccc2cccnc12` gave GLA inh pH 4.5 -29, miR-21 reporter -4%, Rango-impB inh -0.2% and Rango dissoc inh 1%.
`CCn1c(C)nc2cc(C(=O)NNS(=O)(=O)c3ccc(C)c(C)c3)ccc21` gave GLA inh pH 4.5 5, miR-21 reporter -7%, Rango-impB inh -0.3% and Rango dissoc inh -11%.
`C1=CC2CCC1ON2c1ccccc1` (stereo not given) gave GLA inh pH 4.5 -3, miR-21 reporter 6%, Rango-impB inh 0.0% and Rango dissoc inh -5%.
Screening O=C(CCOc1ccccc1)N1CCN(S(=O)(=O)c2ccccc2F)CC1 returned Rango-impB inh -2.0% and Rango dissoc inh 3%.
Screening CC1Oc2cc3oc4c(O)c5c(cc4c(=O)c3c(O)c2C1(C)C)C=CC(C)(C)O5 (stereo not given) returned Rango-impB inh 0.5% and Rango dissoc inh 22%.
For COC(=O)CSc1nnc(-c2ccccc2OC)n1-c1ccc(C)cc1 the results were GLA inh pH 4.5 -26, miR-21 reporter -3%, Rango-impB inh -0.8% and Rango dissoc inh -7%.
For CCCN1C(=O)COc2ccc(-c3n[nH]c(=O)c4ccccc34)cc21 the results were GLA inh pH 4.5 -9, miR-21 reporter -7%, Rango-impB inh -2.0% and Rango dissoc inh 16%.
For CCOC(=O)C(Cc1cc(C(C)=O)ccc1OC(C)C)C(=O)OCC the results were GLA inh pH 4.5 4, miR-21 reporter -11%, Rango-impB inh -3.7% and Rango dissoc inh -9%.
`Cc1ccc(S(=O)(=O)NCCC(=O)Nc2ccc(C)c(Cl)c2)cc1C` gave GLA inh pH 4.5 -3, miR-21 reporter -4%, Rango-impB inh 2.7% and Rango dissoc inh -13%.
`O=C(COC(=O)C1=COCCO1)Nc1ccc(F)c(F)c1` gave Rango-impB inh -0.6% and Rango dissoc inh -5%.
Screening COc1cc(S(=O)(=O)NCc2ccncc2)c(OC)cc1Br returned miR-21 reporter 5%, Rango-impB inh -9.7% and Rango dissoc inh -4%.
Screening O=c1[nH]n(CC2COC3(CCCCC3)O2)c(=O)c2ccccc12 (stereo not given) returned GLA inh pH 4.5 -11, miR-21 reporter -64%, Rango-impB inh -2.4% and Rango dissoc inh 7%.
Screening COc1ccc(C2C3=C(N=C4SCC(=O)N42)c2ccccc2CC3)cc1OC (stereo not given) returned GLA inh pH 4.5 1, miR-21 reporter -6%, Rango-impB inh 0.6% and Rango dissoc inh 9%.
Screening O=C(O)C1CCCN(S(=O)(=O)c2ccc(Cl)s2)C1 (stereo not given) returned GLA inh pH 4.5 2, miR-21 reporter -5%, Rango-impB inh -3.5% and Rango dissoc inh -11%.
Screening COc1ccc(NS(=O)(=O)c2cccc(C(=O)NCC(c3ccc(OC)cc3)N3CCCCC3)c2)cc1 (stereo not given) returned Rango-impB inh -0.2% and Rango dissoc inh 1%.
For O=C1c2cccnc2C(Nc2ccccc2Br)N1Cc1ccco1 (stereo not given) the results were GLA inh pH 4.5 -14, miR-21 reporter -3%, Rango-impB inh -2.0% and Rango dissoc inh 0%.
`Cc1ccc(NC(=O)CN(C)C(=O)C2CC(=O)N(Cc3ccccc3)C2)cc1` (stereo not given) gave miR-21 reporter 0%, Rango-impB inh -0.6% and Rango dissoc inh 14%.
CCSC1=NC2(CCCCC2)Nc2sc3c(c21)CCCC3 was read as GLA inh pH 4.5 -11, miR-21 reporter 1%, Rango-impB inh -3.4% and Rango dissoc inh -10%.
Screening COc1ccc(OC)c(NC(=O)COc2ccc3c(c2)CCC3)c1 returned Rango-impB inh 0.6% and Rango dissoc inh -2%.
COc1ccc(C(CNC(=O)c2cccc(S(=O)(=O)Nc3ccc(C)cc3)c2)N2CCOCC2)cc1 (stereo not given) was read as Rango-impB inh 3.7% and Rango dissoc inh 29%.
`Cc1ccc2c(CSc3nnnn3C)cc(=O)oc2c1` gave GLA inh pH 4.5 7, miR-21 reporter -2%, Rango-impB inh -3.5% and Rango dissoc inh -14%.
O=C(CSc1nc2ccccc2o1)Nc1nccs1 was read as GLA inh pH 4.5 -7, miR-21 reporter -36%, Rango-impB inh 0.9% and Rango dissoc inh -4%.
`O=C(NNC(=O)c1nc2ccccc2[nH]1)OCc1ccccc1` gave Rango-impB inh 4.2% and Rango dissoc inh -11%.
For COc1ccc(/C(C)=N/OC/C(O)=C(\C#N)c2nc3ccccc3[nH]2)cc1OC the results were GLA inh pH 4.5 10, miR-21 reporter -5%, Rango-impB inh -3.4% and Rango dissoc inh -8%.
`COC(=O)C1C(=O)N2CCCSC2=C(C#N)C1c1cccs1` (stereo not given) gave GLA inh pH 4.5 -1, miR-21 reporter -6%, Rango-impB inh -0.9% and Rango dissoc inh -4%.

Quoted at random: 3 compounds from above.
COc1ccc(C(CNC(=O)c2cccc(S(=O)(=O)Nc3ccc(C)cc3)c2)N2CCOCC2)cc1 (stereo not given) was read as Rango-impB inh 3.7% and Rango dissoc inh 29%.
Screening O=C(O)C1CCCN(S(=O)(=O)c2ccc(Cl)s2)C1 (stereo not given) returned GLA inh pH 4.5 2, miR-21 reporter -5%, Rango-impB inh -3.5% and Rango dissoc inh -11%.
Screening COc1cc(S(=O)(=O)NCc2ccncc2)c(OC)cc1Br returned miR-21 reporter 5%, Rango-impB inh -9.7% and Rango dissoc inh -4%.

Next records follow.
`O=C(Nc1ccccc1)c1cccc(NC(=O)c2ccco2)c1` gave Rango-impB inh 1.6% and Rango dissoc inh 7%.
Screening CC(C)C[C@H](NC(=O)Nc1ccc(Oc2ccccc2)cc1)C(=O)O returned GLA inh pH 4.5 1, miR-21 reporter -4%, Rango-impB inh 1.0% and Rango dissoc inh 4%.
`O=C1NCC(COCC2CC=CCC2)O1` (stereo not given) gave GLA inh pH 4.5 -5, miR-21 reporter -3%, Rango-impB inh 2.0% and Rango dissoc inh -5%.
For On1c(-c2ccccc2Cl)nc2ncccc21 the results were miR-21 reporter -6%, Rango-impB inh -0.3% and Rango dissoc inh -3%.
`CCOC(=O)C1CCCN(C(=O)c2ccc(Cl)c(S(=O)(=O)N3CCc4ccccc43)c2)C1` (stereo not given) gave Rango-impB inh inconclusive and Rango dissoc inh -17%.
For CC1Cc2ccccc2N1C(=O)CCS(=O)(=O)c1cccs1 (stereo not given) the results were GLA inh pH 4.5 -10, miR-21 reporter -26%, Rango-impB inh -1.0% and Rango dissoc inh 14%.
For CCCCNC(=O)c1ccc(N2CCC3(CC2)OCCO3)c([N+](=O)[O-])c1 the results were GLA inh pH 4.5 3, miR-21 reporter -27%, Rango-impB inh -3.2% and Rango dissoc inh 0%.
`Fc1cc(F)c2nc(Nc3nc4c(F)cccc4s3)sc2c1` gave GLA inh pH 4.5 3, miR-21 reporter -1%, Rango-impB inh 3.5% and Rango dissoc inh 6%.
C=CCOc1cccc(C2C(C(=O)c3ccc(C)o3)=C(O)C(=O)N2CCCn2ccnc2)c1 (stereo not given) was read as Rango-impB inh 0.8% and Rango dissoc inh -6%.
`COc1cc(NC(=S)Nc2ccc(Br)cc2Cl)c(OC)cc1Cl` gave GLA inh pH 4.5 0, miR-21 reporter 0%, Rango-impB inh -3.4% and Rango dissoc inh -1%.
Screening CC(C)Cn1c(SCC(=O)N2CCOCC2)nc2ccccc2c1=O returned Rango-impB inh -1.3% and Rango dissoc inh -10%.
Screening CC(C)(C)NC[C@H](O)COc1nsnc1N1CCOCC1 returned GLA inh pH 4.5 -5&12, miR-21 reporter -4%, Rango-impB inh -0.6%&0.3%&0.5% and Rango dissoc inh 26%&7%&1%.
`COc1ccc(OC)c(NC(=O)CSc2nncc3ccccc23)c1` gave miR-21 reporter 1%, Rango-impB inh 0.5% and Rango dissoc inh 1%.
Screening COC(=O)CCC(=O)OC1(C)C(=O)C=C2C=C(C3CC3)N(CCc3c[nH]c4ccccc34)C=C2C1=O (stereo not given) returned GLA inh pH 4.5 -2&-2, miR-21 reporter 5%, Rango-impB inh inconclusive and Rango dissoc inh inconclusive.
Screening COc1ccc(OC)c(C2C(C(=O)Nc3ccccc3OC)=C(C)Nc3nc(CCCO)nn32)c1 (stereo not given) returned GLA inh pH 4.5 -5, miR-21 reporter 0%, Rango-impB inh 0.6% and Rango dissoc inh inconclusive.
CCOc1ccc(NS(=O)(=O)c2ccc(NC(=O)[C@@H]3CCCC[C@@H]3C(=O)O)cc2)cc1 was read as GLA inh pH 4.5 2, miR-21 reporter -1%, Rango-impB inh 2.5% and Rango dissoc inh -11%.
For COc1ccccc1C(=O)O/N=C(\N)c1ccccc1Cl the results were GLA inh pH 4.5 -6, miR-21 reporter -62%, Rango-impB inh -1.1% and Rango dissoc inh -3%.
O=C1C2C3CCC(C3)C2C(=O)N1Cc1ccccc1 (stereo not given) was read as GLA inh pH 4.5 0, miR-21 reporter -8%, Rango-impB inh 2.9% and Rango dissoc inh -12%.
Screening O=[N+]([O-])c1ccc(O)c(-c2nn[nH]n2)c1 returned GLA inh pH 4.5 -18, miR-21 reporter -37%, Rango-impB inh 2.4% and Rango dissoc inh 5%.
For O=C(CSc1nc2c(c(=O)n1-c1ccc(Cl)cc1)SCC2)Nc1ccc2c(c1)OCCO2 the results were GLA inh pH 4.5 2, miR-21 reporter 2%, Rango-impB inh -3.1% and Rango dissoc inh -11%.
For Cn1nnc(NC(=O)c2ccco2)n1 the results were GLA inh pH 4.5 6, miR-21 reporter -3%, Rango-impB inh 1.1% and Rango dissoc inh 11%.
COc1ccccc1Nc1nc(N)nc(CSC(=S)N2CC(C)CC(C)C2)n1 (stereo not given) was read as GLA inh pH 4.5 15, miR-21 reporter -5%, Rango-impB inh 2.2% and Rango dissoc inh 2%.
For CCn1c(CNC(=O)c2ccc(Cl)cc2)nnc1SCC(=O)N1CCOCC1 the results were miR-21 reporter 0%, Rango-impB inh -4.5% and Rango dissoc inh -18%.
Screening CC(C)C[C@H]1CNC(=S)N1CC1CCN(CC2CCC(C(C)(C)C)CC2)CC1 (stereo not given in full) returned Rango-impB inh -1.6% and Rango dissoc inh -23%.
Cc1ccc(/C=N/NC(=O)c2nnn(-c3nonc3N)c2-c2cccs2)cc1 was read as miR-21 reporter 13%, Rango-impB inh inconclusive and Rango dissoc inh inconclusive.
For CCCCC1CCC(C(=O)Nc2ccc(N3CCOCC3)cc2N2CCOCC2)CC1 (stereo not given) the results were Rango-impB inh 0.2% and Rango dissoc inh -5%.
For Cn1c(Sc2ccccc2Cl)c(C=O)c2ccccc21 the results were GLA inh pH 4.5 5, miR-21 reporter 7%, Rango-impB inh -0.2% and Rango dissoc inh 0%.
Screening O=C(OC(C(=O)Nc1ccc(Cl)cc1C(F)(F)F)c1ccccc1)C1=COCCO1 (stereo not given) returned GLA inh pH 4.5 inconclusive, miR-21 reporter 0%, Rango-impB inh 2.8% and Rango dissoc inh -3%.
`CCc1nnc(NC(=O)CSc2nnc(COc3ccccc3)n2Cc2ccccc2)s1` gave GLA inh pH 4.5 -8, miR-21 reporter -2%, Rango-impB inh -8.2% and Rango dissoc inh -8%.

Molecules listed so far that have a tert-butyl group (2):
Screening CC(C)(C)NC[C@H](O)COc1nsnc1N1CCOCC1 returned GLA inh pH 4.5 -5&12, miR-21 reporter -4%, Rango-impB inh -0.6%&0.3%&0.5% and Rango dissoc inh 26%&7%&1%.
Screening CC(C)C[C@H]1CNC(=S)N1CC1CCN(CC2CCC(C(C)(C)C)CC2)CC1 (stereo not given in full) returned Rango-impB inh -1.6% and Rango dissoc inh -23%.
